Screening results as filed in PubChem.
TRPV1 PAM: enhances activation of the human vanilloid receptor TRPV1. Q8NER1. TRPV1-expressing cells, Fluo-8 calcium influx, capsaicin EC20 potentiation; host cell line not named in the record; control for the full effect not named in the record. potentiation, % at 8.33 µM. 0.02% of 320,000 active. AID 540277; active means potentiation above 80%; inconclusive means 30% to 80%; inactive means below 30%; further: 0% is about no effect
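Cells expressing TRPV1 were dye-loaded with Fluo-8 and read kinetically: 10 s baseline, 3 min after compound (agonist portion), then 2 min after EC20 capsaicin (allosteric enhancer portion). Calcium-bound dye fluorescence at 480/520 nm.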
TRPML1 blocker: human mucolipin-1 channel inhibition; activity change, negative = inhibition, % (no concentration beside the values); TRPML1-inducible cells, Ca2+ dye fluorescence, FDSS; stronger effect = lower value; inhibition of EC80 agonist-evoked calcium signal; 0.02% of 390,000 active; Q9GZU1; in the data active means activity change below about -50%; inconclusive means about -30% to -50%; inactive means above about -30%;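 further: stimulus is agonist 54-4 at its EC80 concentration; on the % scale 0 is the no-effect control and ±100 the full control effect; compound concentration not given in the record; the text of the record puts the active cut at -80%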
Target sequence (Q9GZU1 whole entry, looked up): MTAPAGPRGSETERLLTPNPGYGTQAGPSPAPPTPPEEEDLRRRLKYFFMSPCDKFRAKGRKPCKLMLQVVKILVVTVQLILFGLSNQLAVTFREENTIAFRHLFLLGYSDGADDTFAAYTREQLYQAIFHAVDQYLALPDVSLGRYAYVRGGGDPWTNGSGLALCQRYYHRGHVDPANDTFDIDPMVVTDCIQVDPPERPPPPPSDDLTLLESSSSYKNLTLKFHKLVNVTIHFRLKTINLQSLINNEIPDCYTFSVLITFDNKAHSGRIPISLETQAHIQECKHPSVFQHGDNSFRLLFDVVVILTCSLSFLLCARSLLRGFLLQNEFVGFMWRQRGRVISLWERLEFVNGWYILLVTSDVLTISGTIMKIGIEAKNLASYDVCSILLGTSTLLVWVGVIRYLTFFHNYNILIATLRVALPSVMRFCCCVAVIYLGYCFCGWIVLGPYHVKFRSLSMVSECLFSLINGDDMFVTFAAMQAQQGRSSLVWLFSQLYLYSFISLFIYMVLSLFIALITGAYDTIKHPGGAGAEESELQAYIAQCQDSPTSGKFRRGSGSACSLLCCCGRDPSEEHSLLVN
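Tet-induced TRPML1-DL cells loaded with Ca8 no-wash calcium dye were read kinetically on FDSS. Compound addition was followed by EC80 agonist 54-4 (4 uM final); inhibition was read over 110 s.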
TRPML1 agonist: human mucolipin-1 channel agonism; Q9GZU1; 0.12% of 410,000 active; TRPML1-expressing cells, Ca2+ dye fluorescence, FDSS; host cell line not named in the record; reference of the full effect not given here; activation, % (concentration not given with the values); in the data active = activation above about 50%; inconclusive = about 30% to 50%; inactive = below about 30%; further: 0% is about no effect; the text of the record puts the active cut at 80%
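Kinetic FDSS Ca2+ read in Tet-induced TRPML1-DL cells (ABD Ca8 dye plus quencher, 45-90 min RT loading): baseline, then compound, then 110 s agonist window; EC80 agonist 54-4 at 4uM final added afterwards for a 110 s antagonist window.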
D2 potentiator: human D2 receptor positive allosteric modulation; DiscoveRx D2 beta-arrestin cells, luminescence, 90 min; 100% = 57 uM dopamine signal; 0.23% of 360,000 active; AID 624464; P14416; potentiation, % (no concentration beside the values); active = potentiation of 50% or more; inconclusive = 30% to 50%; inactive = 30% or less;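 further: compound concentration not given in the record; tested on top of an EC20 dose of dopamine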
Target sequence (P14416 whole entry, looked up): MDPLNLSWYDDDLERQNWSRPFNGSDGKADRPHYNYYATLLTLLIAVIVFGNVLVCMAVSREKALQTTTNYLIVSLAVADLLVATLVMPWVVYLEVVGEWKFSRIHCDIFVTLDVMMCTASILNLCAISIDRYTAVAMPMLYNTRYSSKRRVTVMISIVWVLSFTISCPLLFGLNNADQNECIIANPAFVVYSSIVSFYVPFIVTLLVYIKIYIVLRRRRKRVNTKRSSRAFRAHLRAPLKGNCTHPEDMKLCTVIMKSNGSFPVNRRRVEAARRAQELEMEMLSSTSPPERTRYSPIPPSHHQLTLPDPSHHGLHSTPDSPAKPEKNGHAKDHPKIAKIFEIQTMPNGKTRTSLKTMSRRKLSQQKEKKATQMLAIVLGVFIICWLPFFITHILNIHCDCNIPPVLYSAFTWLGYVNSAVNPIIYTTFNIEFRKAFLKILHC
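PathHunter beta-arrestin assay in DiscoveRx D2 cells. Compounds were added with an EC20 of dopamine (50 nM final) for 90 min at 37 deg C. Luminescence was read 1 h after detection reagent, with 57 uM dopamine as the EC100 control.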
Six1-Eya2 inh: inhibitors of human Six1/Eya2 interaction; Q15475+O00167; AlphaScreen GST-Six1/His-Eya2 binding, biochemical; stronger effect = lower value; control for the full effect not named in the record; activity change, % (test concentration not listed); 0.56% of 360,000 active; in the data active = activity change below about -65%; inconclusive = about -30% to -65%; inactive = above about -30%; further: on the % scale 0 is the no-effect control and ±100 the full control effect; compound concentration not given in the record
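Six1/Eya2 binding was read as AlphaScreen signal after compounds were pinned into GST-Six1 plus His-tagged Eya2 (5X stock 250/500 nM) in pH 8.0 Tris/NaCl/TCEP buffer, beads added, then incubated 1 h, 37 C, dark.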
CtBP-E1A blk: CtBP/E1A binding inhibition; activity change, % (no concentration beside the values); 0.49% of 340,000 active; AlphaScreen GST-E1A/His-CtBP binding, 1536-well; stronger effect = lower value; control for the full effect not named in the record; in the data active means activity change below about -65%; inconclusive means about -30% to -65%; inactive means above about -30%; further: on the % scale 0 is the no-effect control and ±100 the full control effect; compound concentration not given in the record
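Steps: dispense buffer (Tris pH 8.0, NaCl 300 mM, TCEP 1 mM, BSA, Tween 20); add 5X protein mix (GST-E1A, His-CtBP, 125 nM each); pin 23 nL compound; 2 h at 37 °C, dark; add 5X beads (50 ug/mL); 1 h; read.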
Starred values were filed as active, the others as inactive; ? = inconclusive; · = not tested or not shown; & = joins results of further samples. An unsorted share of the library. About 0.95% of those tested had a hit in this group.

SMILES | TRPV1 PAM | TRPML1 blocker | TRPML1 agonist | D2 potentiator | Six1-Eya2 inh | CtBP-E1A blk
COc1ccccc1C(=O)NCCC(=O)Nc1ccc(S(=O)(=O)N2C(C)CCCC2C)cc1 (stereo unspecified) | -1 | 4 | -0.2 | -3 | -2 | -8
Cc1ccc(S(=O)(=O)CCC(=O)NCCc2ccccc2)cc1 | -7 | -5 | 1.1 | -9 | 20 | ·
CCN(CC)CCCNc1nnc(C)c(=O)[nH]1 | 9 | -5 | 0.7 | -12 | -9 | -5
CSc1ccccc1C(=O)Nc1ccccc1C(=O)NC(C)C | -16 | 21 | -0.3 | -6 | -16 | 3
O=C(Nc1ccccc1Cl)c1cc(C2CCCN(C(=O)C3CCCCC3)C2)on1 (stereo unspecified) | · | · | -0.8 | -4 | -3 | 3
CC(=O)c1cc2c(cc1NC(=O)CN1CCCCCCC1)OCO2 | 15 | 42 | 3.5 | -22 | 8 | 0
Cc1nnc2sc(-c3cccc(NC(=O)c4cccnc4)c3)nn12 | -4 | -1 | 3.5 | -16 | -28 | ?
CCc1nn2c(=O)c(S(=O)(=O)Nc3ccc(C(C)C)cc3)c(C)nc2s1 | -13 | 24&4 | -1.1&0.7 | -1 | -6 | 3
O=C1Nc2cc(C(=O)NCCN3CCCCCC3)ccc2S/C1=C\c1ccccc1 | -27 | 0 | -0.3 | -4 | -17 | ·
O=S1(=O)CCN(Cc2ccc(Cl)c(C(F)(F)F)c2)CC1 | 5 | 1 | 1.0 | -5 | 13 | -5
CCOc1ccccc1C1CC(=O)Nc2c1c(=O)n(C)c(=O)n2C (stereo unspecified) | 30 | -3 | 0.3 | -16 | 11 | 4
CCCCNC(=O)c1cc2c(=O)n3cccc(C)c3nc2n(Cc2ccccc2)c1=N | -10 | 29 | 0.0 | -9 | 6 | 6
CN(CCOc1ccccc1)C(=O)c1cc([N+](=O)[O-])ccc1N1CCOCC1 | 15 | 16 | 0.1 | 5 | -7 | 16
O=C1C=C(Nc2ccc(Cl)cc2)C(=O)N1c1ccc(Cl)cc1 | -13 | 15 | 5.4 | -3 | -2 | -16
CC(=O)N1CCN(Cc2cc(=O)oc3cc(C)ccc23)CC1 | · | · | -0.2 | 0 | 5 | -4
CC(C)(CO)CNc1ccn2nccc2n1 | · | · | -0.2 | -8 | 7 | -3
COc1ccc(-c2nc3c4ccccc4ccn3c2Cc2ccccc2)cc1OC | · | · | -0.1 | -8 | -8 | -7
O=C(O)c1ccc(N2CCc3ccccc32)c([N+](=O)[O-])c1 | 20 | · | · | -17 | -7 | -3
CC1CCN(S(=O)(=O)c2cccc(C(=O)NCC3CCCO3)c2)CC1 (stereo unspecified) | 7 | -6 | -0.2 | -5 | -4 | -15
c1ccc(-c2noc(CC3CCCCC3)n2)cc1 | -13 | -3 | -0.7 | -5 | 11 | 19

An excerpt of these results, with two lines to a compound:
Order of results – TRPV1 PAM | TRPML1 blocker | TRPML1 agonist | D2 potentiator | Six1-Eya2 inh | CtBP-E1A blk
CSc1ccccc1C(=O)Nc1ccccc1C(=O)NC(C)C
 : -16 | 21 | -0.3 | -6 | -16 | 3
O=C(Nc1ccccc1Cl)c1cc(C2CCCN(C(=O)C3CCCCC3)C2)on1 (stereo unspecified)
 : · | · | -0.8 | -4 | -3 | 3
CC(=O)c1cc2c(cc1NC(=O)CN1CCCCCCC1)OCO2
 : 15 | 42 | 3.5 | -22 | 8 | 0
Cc1nnc2sc(-c3cccc(NC(=O)c4cccnc4)c3)nn12
 : -4 | -1 | 3.5 | -16 | -28 | ?

Next records.
SMILES | TRPV1 PAM | TRPML1 blocker | TRPML1 agonist | D2 potentiator | Six1-Eya2 inh | CtBP-E1A blk
Cc1ccc(F)cc1NC(=O)C12CC3CC(C1)CC(n1cnc([N+](=O)[O-])n1)(C3)C2 | 9 | -3 | -0.9 | 16 | 2 | 7
O=Cc1cccn1-c1ccc2ccccc2c1 | 10 | -1 | 0.4 | -2 | -2 | 2
O=C(NCc1ccccc1)/C(=N\O)c1ccccc1 | 1 | 7 | -0.6 | -16 | 4 | 0
Cc1cc(C)c(C#N)c(SCc2cn3c(C)cccc3n2)n1 | -24 | 34 | 4.4 | -13 | -11 | -14
COc1ccc(C)cc1NC(=O)c1cc2c(s1)CCC2 | -9 | -5 | -0.2 | -7 | 8 | 9
CC(NC(=O)c1ccco1)C(=O)N1CCN(C(c2ccccc2)c2ccccc2)CC1 (stereo unspecified) | -3 | -4 | 1.9 | 57* | 0 | 5
COc1cc(SC)ccc1C(=O)NCCOc1ccccc1Cl | -5 | -19 | 4.4 | -13 | 0 | 5
N#Cc1c(-c2ccc(F)cc2)noc1N | 0 | -6 | 0.1 | 96* | 23 | 0
O=C(NC1CCN(Cc2ccccc2)CC1)c1cc(Br)c(Br)[nH]1 | -1 | 10 | 2.6 | -15 | -4 | 5
CCCCN(CCCC)c1nc2ccccc2nc1NS(=O)(=O)c1ccc(NC(C)=O)cc1 | 7 | -13 | -0.1 | -3 | 0 | 10
Cn1c(=O)c2c(C(=O)O)cc(-c3ccccc3)nc2n(Cc2ccccc2)c1=O | 13 | 4 | 1.0 | -12 | -5 | 1
O=C(Nc1ccccc1)Nc1csc2ccccc12 | -1 | -1 | 0.1 | -10 | 2 | -15
CC(C)Cc1nnc(NC(=O)CN2C(=O)c3ccccc3C2=O)s1 | -5 | 4 | 1.2 | 1 | -3 | 0
CC(C)(c1ccc(O)cc1)c1ccc(O)cc1 | 17 | 4 | 1.7 | -11 | 5 | -8
Cc1ccc2cc(C3CC(c4ccco4)=NN3C(=O)CCC(=O)O)c(Cl)nc2c1 (stereo unspecified) | 27 | 44 | -0.3 | -14 | -8 | -2
COCCNC(=O)C1(C)CCN(C(=O)c2cc(-c3ccccc3)cs2)C1 (stereo unspecified) | · | 19 | 0.2 | -8 | 1 | 1
Cc1ncc([N+](=O)[O-])n1CC(=O)Nc1ccccc1Cl | · | -15 | -0.9 | -7 | 3 | 5
Cc1ccc(C(=O)Nc2ccc(C(=O)/C=C/c3cccs3)cc2)cc1 | 2 | -7 | 1.4 | -15 | 2 | -3
COC(=O)C(=O)/C=C(\O)c1ccc(C)cc1 | 0 | -10 | 0.6 | -19 | -14 | -24
CCN(CC)c1ccc(NC(=O)CSc2nc3ccccc3c(=O)[nH]2)cc1 | 7 | 8 | 2.3 | -35 | -21 | -9
O=C(Nc1ccccc1)C1CCCN1/C=C/C(=O)C(F)(F)F (stereo unspecified) | 3 | 4 | 0.2 | -27 | 15 | -13
Cn1cnnc1Sc1nc2c(c(=O)n(C)c(=O)n2C)n1C | · | -6 | 4.1 | 1 | -4 | 0
Cc1ccc(-c2ccnc3nc(-n4cccc4)nn23)o1 | 9 | 3 | 1.8 | -4 | -13 | ·
CSc1nnc(C)c(=O)n1COC(=O)COc1ccc2ccccc2c1 | 0 | 17 | 2.1 | 0 | 6 | 2
CCOC(=O)c1c(NC(=O)CN2C(=O)NC3(CCC(CC)CC3)C2=O)sc(C)c1-c1ccc(C)cc1 (stereo unspecified) | 2 | 24 | 0.6 | -24 | -5 | -7
N=C1C(c2ccccc2)=C(O)CN1c1ccccc1 | 1 | -6 | -0.1 | -1 | 1 | 5
COc1ccc(N(CC(=O)N2CCN(c3cc(C)ccc3C)CC2)S(=O)(=O)c2c(C)noc2C)cc1 | -16 | 22&-22 | -0.4&-1.1 | -11 | 0 | -7
O=C(C1CCCCC1C(=O)N1CCCCC1)N1CCCCC1 (stereo unspecified) | · | -7 | 0.0 | -12 | 2 | -1
CCOc1cc2c(c3c1C(c1ccccc1)N(S(=O)(=O)c1ccc(C)cc1)C3)C(=O)C=CC2=O (stereo unspecified) | · | 60 | -0.4 | -10 | -12 | -1
Cn1c(NCc2ccccc2F)nc2cc(-c3cccc(C(F)(F)F)c3)sc2c1=O | · | · | -0.3 | -3 | 0 | 2
COc1ccc(-c2n[nH]c(=S)n2/N=C/C=C\c2ccccc2OC)cc1 | -6 | -1 | 0.6 | -4 | -1 | 2
Cn1cc(C(=O)NCc2ccc(F)cc2)cn1 | -1 | -9 | 0.1 | -6 | 0 | 0
O=C(Nc1cccnc1Cl)c1ccc(=O)oc1 | -6 | 46 | 0.6 | -10 | ? | ?
CCn1c(NCc2cc(Br)ccc2NS(=O)(=O)c2ccc(C)cc2)nc2ccccc21 | 13 | 17 | 0.4 | -18 | -17 | -10
COc1ccc(C(=O)N2CC3(C)C4CCC3(C)C2(C#N)C4)cc1OC (stereo unspecified) | -2 | 7 | 0.4 | 4 | 1 | 6
CC(NCc1ccc(S(N)(=O)=O)cc1)C(=O)Nc1ccc([N+](=O)[O-])cc1Cl (stereo unspecified) | 7 | -13 | 0.8 | 5 | -3 | -13
CCCCNC(=O)NNC(=O)c1ccc(F)cc1 | 7 | 3 | 0.2 | 2 | 8 | -6
COCC(C)n1c(C)cc(C(=O)CSc2nc3ccccc3c(=O)[nH]2)c1C (stereo unspecified) | ? | 19 | 1.2 | -1 | -10 | -21
COC(=O)C1=C(C)N(C)C(C)=C(C(=O)OC)C1c1ccc(F)c(Br)c1 | -6 | 12 | 1.7 | -5 | -18 | -15
Cc1ccc(C(=O)NNC(=O)C(NC(=O)c2cccc(C)c2)C(C)C)cc1 (stereo unspecified) | 13 | 50 | -0.9 | -11 | -15 | ·

One compound at a time (already shown).
`Cc1ccc(C(=O)NNC(=O)C(NC(=O)c2cccc(C)c2)C(C)C)cc1` (stereo unspecified) in the list: TRPV1 PAM = 13; TRPML1 blocker = 50; TRPML1 agonist = -0.9; D2 potentiator = -11; Six1-Eya2 inh = -15; CtBP-E1A blk = ·
`N=C1C(c2ccccc2)=C(O)CN1c1ccccc1` in the list: TRPV1 PAM = 1; TRPML1 blocker = -6; TRPML1 agonist = -0.1; D2 potentiator = -1; Six1-Eya2 inh = 1; CtBP-E1A blk = 5

Further records.
SMILES | TRPV1 PAM | TRPML1 blocker | TRPML1 agonist | D2 potentiator | Six1-Eya2 inh | CtBP-E1A blk
C/C(=N\NC(=O)C1(C)CC1(Br)Br)c1cccc(NC(=O)C(C)(C)C)c1 (stereo unspecified) | 4 | 6 | -0.4 | -12 | 0 | 4
COc1ccc(C2=NN(CCC(=O)NC3CCCCCC3)C(=O)CC2)cc1 | 12 | 4 | -1.2 | -3 | 0 | 1
CCc1cc(C(=O)Nc2cc(S(=O)(=O)N3CCOCC3)ccc2N2CCN(CC)CC2)sc1C | · | -7 | -0.2 | -15 | 7 | 1
C[C@H](CO)N1C[C@H](C)[C@@H](CN(C)C(=O)Nc2ccc(C(F)(F)F)cc2)Oc2ccc(NS(=O)(=O)c3cn(C)cn3)cc2C1=O | · | 2 | -0.7 | -1 | 1 | 1
COC(=O)c1[nH]c(C)c(/C(O)=C2\C(=O)C(=O)N(CCN3CCOCC3)C2c2ccc(C)o2)c1C (stereo unspecified) | 13 | 15 | 0.4 | -29 | 1 | -13
COc1ccc(C(=O)NCCS(=O)(=O)NCc2ccc(C)cc2)cc1 | -10 | 9 | 0.0 | 2 | -1 | 8
CCOC(=O)c1ccc(NC(=O)CSC(=S)N2CCOCC2)cc1 | -16 | 2 | 0.3 | -8 | 5 | ·
Cc1cccc(C(=O)Nc2ccccc2C(=O)NCc2ccco2)c1 | -8 | -6 | -0.2 | -11 | 4 | -5
